Source: PubChem BioAssay (Broad Institute)
Vaccinia stage – blocks a specific stage of Vaccinia orthopoxvirus infection, primary screen, cell-based, single point; 0.01% of 89,000 active; AID 1053133, 2014; Vaccinia-infected cells, mCherry/Venus stage reporter fluorescence; hits give low values; some inactives read as strong as hits; activity change (mCherry), % (concentration not given with the values);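 active means mCherry past -33% and 40 or more points under the early reporter, replicates agreeing; inconclusive means past -33% without that gap or agreement; tested in A549 cells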;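 further: scaled between vehicle wells and reference inhibitor wells; 23 nL library stock went into each well; one replicate is shown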
Vaccinia stage Venus – also measured in Vaccinia stage; calls as there; activity change (Venus), %; measured here: Venus reporter, other viral stage;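 negative = less Venus signal; first of two replicates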
Numbers without * were called inactive; ? = inconclusive; nt = not tested or not shown; & = joins results of further samples.

SMILES	Vaccinia stage	Vaccinia stage Venus
C[C@@H]1CCCCO[C@H](CN(C)Cc2ccccc2)[C@@H](C)CN([C@H](C)CO)C(=O)c2cc(NS(=O)(=O)c3ccc(Cl)cc3)ccc2O1	-19.7	-11.3
CC(=O)N(C)C[C@@H]1Oc2cc(C3=CCCC3)ccc2S(=O)(=O)N([C@@H](C)CO)C[C@H]1C	-4.1	-10.0
N#C[C@H]1[C@@H](c2ccc(C3=CCCC3)cc2)[C@@H](CO)N1C(=O)C1CCC1	17.1	23.9
CC(C)CC#Cc1cnc2c(c1)C(=O)N([C@@H](C)CO)C[C@@H](C)[C@H](CN(C)C(=O)Cc1cccnc1)O2	4.9	14.9
Cc1cccc(-c2ccc([C@@H]3[C@H]4CN(S(=O)(=O)c5cn(C)cn5)CCCCN4[C@H]3CO)cc2)c1	-20.4	-13.7
COCC(=O)N1C[C@@H](C)[C@H](OC)CN(C)C(=O)c2ccc(NC(=O)c3cnccn3)cc2OC[C@H]1C	10.4	3.6
O=C(C[C@@H]1CC[C@@H]2[C@H](COC[C@H](O)CN2Cc2cccc(C(F)(F)F)c2)O1)NCCc1ccncc1	-22.9	-12.4
C[C@@H]1CN([C@H](C)CO)C(=O)c2cc(NC(=O)CCCN(C)C)ccc2O[C@@H]1CN(C)Cc1ccccc1	3.2	2.1
C[C@@H]1CN([C@H](C)CO)S(=O)(=O)c2ccc(C3=CCCCC3)cc2O[C@@H]1CN(C)Cc1cncnc1	-19.4	-17.4
O=C(C[C@H]1CC[C@@H]2[C@H](COC[C@H](O)CN2Cc2ccc(F)cc2)O1)N1CCc2ccccc2C1	-18.7	-4.3
COc1ccc2c3c(n(C)c2c1)[C@@H](CO)N(C(=O)Nc1ccc(F)cc1)CC31CCN(C(=O)c2ccc3c(c2)OCO3)CC1	?	nt
O=C(c1ccccc1)N1C[C@H]2[C@@H](c3ccccc31)[C@@H](CO)N2C(=O)Nc1ccccc1Cl	13.7	12.8
N#Cc1cccc(-c2ccc([C@@H]3[C@H]4CN(C(=O)Cc5ccncc5)CCCCN4[C@H]3CO)cc2)c1	13.4	9.9
COc1ccc2c3c([nH]c2c1)[C@H](CO)N(C(=O)NC(C)C)CC31CN(C(=O)C2CCCCC2)C1	3.1	1.4
O=C(c1cccnc1)N1CCCCN2[C@H](C1)[C@@H](c1ccc(C#Cc3ccccn3)cc1)[C@@H]2CO	23.2	20.1
CCC(=O)N(C)C[C@H]1Oc2cc(-c3ccccc3)ccc2S(=O)(=O)N([C@@H](C)CO)C[C@@H]1C	-1.4	-9.5
N#Cc1cccc(-c2ccc([C@@H]3[C@H]4CN(C(=O)Cc5ccccc5)CCCCN4[C@H]3CO)cc2)c1	-20.2	-14.5
CC(=O)NC[C@H]1[C@@H](c2ccc(-c3ccccc3)cc2)[C@@H](CO)N1C(=O)C1CCC1	-0.3	-4.3
O=C(C[C@@H]1C=C[C@H](NC(=O)C2CC2)[C@@H](CO)O1)NCCCN1CCOCC1	2.3	2.0
CO[C@H]1CN(C)C(=O)c2cc(NC(=O)NC3CCCCC3)ccc2OC[C@@H](C)N(C)C[C@H]1C	16.4	9.9
O=C(N[C@@H]1CC[C@H](CCNC(=O)c2ccccc2F)O[C@@H]1CO)c1cnccn1	10.5	14.6
C[C@@H]1CN([C@@H](C)CO)S(=O)(=O)c2ccc(C#CC3CC3)cc2O[C@H]1CN(C)Cc1ccc(F)cc1	?	nt
C[C@H](CO)N1C[C@H](C)[C@@H](CN(C)Cc2ccc(C(=O)Nc3ccccc3N)cc2)Oc2ccc(NS(=O)(=O)c3ccccc3)cc2C1=O	8.2	5.6
COc1cccc(S(=O)(=O)Nc2ccc3c(c2)C(=O)N(C)C[C@H](OC)[C@H](C)CN[C@H](C)CO3)c1	14.0	17.2
COc1ccc(S(=O)(=O)N(C)C[C@H]2Oc3ccc(NC(=O)CCCCCC(=O)Nc4ccccc4N)cc3C(=O)N([C@H](C)CO)C[C@H]2C)cc1	9.9	3.3
COc1cccc(S(=O)(=O)N[C@H]2C=C[C@H](CC(=O)NCc3ccncc3)O[C@@H]2CO)c1	8.8	5.4
C[C@@H]1CN([C@H](C)CO)S(=O)(=O)c2ccc(-c3cccc(F)c3)cc2O[C@@H]1CN(C)C	-2.9	-6.5
Cc1noc(C)c1NC(=O)Nc1ccc2c(c1)CC(=O)N([C@@H](C)CO)C[C@H](C)[C@@H](CN(C)C)O2	14.5	4.2
C[C@@H]1CN([C@H](C)CO)C(=O)Cc2cc(NC(=O)C3CCCCC3)ccc2O[C@H]1CN(C)C(=O)NC1CCCCC1	7.4	-0.5
C[C@@H]1CN([C@@H](C)CO)C(=O)CCCn2nncc2CO[C@H]1CN(C)C(=O)Nc1ccc(F)cc1	13.6	7.0

Among those listed so far, these have a Cl atom:
SMILES	Vaccinia stage	Vaccinia stage Venus
C[C@@H]1CCCCO[C@H](CN(C)Cc2ccccc2)[C@@H](C)CN([C@H](C)CO)C(=O)c2cc(NS(=O)(=O)c3ccc(Cl)cc3)ccc2O1	-19.7	-11.3
O=C(c1ccccc1)N1C[C@H]2[C@@H](c3ccccc31)[C@@H](CO)N2C(=O)Nc1ccccc1Cl	13.7	12.8

(more compounds)
SMILES	Vaccinia stage	Vaccinia stage Venus
C[C@H](CO)N1C[C@H](C)[C@@H](CN(C)C(=O)Nc2ccc(-c3cccs3)cc2)OCc2cn(nn2)CCCC1=O	-4.8	-0.3
CNC[C@H]1Oc2cc(Br)ccc2S(=O)(=O)N([C@H](C)CO)C[C@H]1C	7.9&-0.7	1.5&0.4
C[C@@H]1CN([C@@H](C)CO)C(=O)c2cc(NC(=O)c3ccncc3)ccc2O[C@@H](C)CCCCO[C@H]1CN(C)Cc1ccccc1	-8.8	-14.7
CC(C)NC(=O)N1CC[C@@H]2[C@H]1c1cc(Br)ccc1N(C)[C@@H]2CO	1.2	-1.4
CC(=O)N(C)C[C@H]1Oc2ncc(C#CCC3CCCC3)cc2C(=O)N([C@@H](C)CO)C[C@H]1C	-10.5	-7.6
C[C@H](CO)N1C[C@H](C)[C@H](CN(C)S(C)(=O)=O)Oc2ccc(NC(=O)Nc3ccc(C(F)(F)F)cc3)cc2CC1=O	-19.6	-18.0
CCNC(=O)[C@H]1[C@H](CO)[C@H]2Cn3c(ccc(-c4ccc(F)cc4)c3=O)[C@H]2N1Cc1cc(F)ccc1F	-9.2	0.7
CNC[C@H]1Oc2cc(C#CC(C)C)ccc2S(=O)(=O)N([C@H](C)CO)C[C@@H]1C	-26.4	-19.3
C/C=C/c1ccc2c(c1)O[C@H](CN(C)Cc1cncnc1)[C@@H](C)CN([C@@H](C)CO)S2(=O)=O	-7.4	-4.7
O=C(N[C@H]1CC[C@H](CC(=O)N2CCc3ccccc3C2)O[C@@H]1CO)C1CCOCC1	-7.5	-4.9

Part of the list above, as labelled records.
> C[C@@H]1CN([C@@H](C)CO)C(=O)c2cc(NC(=O)c3ccncc3)ccc2O[C@@H](C)CCCCO[C@H]1CN(C)Cc1ccccc1
  Vaccinia stage: -8.8; Vaccinia stage Venus: -14.7

> CC(C)NC(=O)N1CC[C@@H]2[C@H]1c1cc(Br)ccc1N(C)[C@@H]2CO
  Vaccinia stage: 1.2; Vaccinia stage Venus: -1.4

> CC(=O)N(C)C[C@H]1Oc2ncc(C#CCC3CCCC3)cc2C(=O)N([C@@H](C)CO)C[C@H]1C
  Vaccinia stage: -10.5; Vaccinia stage Venus: -7.6

> C[C@H](CO)N1C[C@H](C)[C@H](CN(C)S(C)(=O)=O)Oc2ccc(NC(=O)Nc3ccc(C(F)(F)F)cc3)cc2CC1=O
  Vaccinia stage: -19.6; Vaccinia stage Venus: -18.0

Next entries follow.
SMILES	Vaccinia stage	Vaccinia stage Venus
C[C@H]1CN([C@@H](C)CO)S(=O)(=O)c2ccc(C#Cc3cccc(F)c3)cc2O[C@@H]1CN(C)S(=O)(=O)c1cn(C)cn1	?	nt
C/C=C/c1ccc2c(c1)O[C@H](CN(C)Cc1ccncc1)[C@@H](C)CN([C@@H](C)CO)S2(=O)=O	-24.7	-16.3
CO[C@H]1CN(C)C(=O)c2ccc(NC(=O)c3ccccc3)cc2OC[C@H](C)N(CC2CC2)C[C@H]1C	0.0	4.1
CN(C)CC(=O)N1[C@H](C#N)[C@@H](c2ccc(C#CC3CCCCC3)cc2)[C@@H]1CO	-20.4	-13.2
C[C@H](CO)N1C[C@H](C)[C@@H](CN(C)C(=O)Nc2ccnc(N3CCOCC3)c2)OCc2ccccc2-c2c(n(C)c3ccccc23)C1=O	-32.3	-31.7
CC(C)C#Cc1cnc2c(c1)C(=O)N([C@@H](C)CO)C[C@@H](C)[C@@H](CN(C)C(=O)c1ccc3c(c1)OCO3)O2	-2.2	-1.2
CC(C)NC(=O)N(C)C[C@H]1Oc2ccc(NC(=O)CCN3CCOCC3)cc2CC(=O)N([C@@H](C)CO)C[C@H]1C	15.7	0.6
COc1ccc(C(=O)Nc2ccc3c(c2)OC[C@H](C)N(C(C)=O)C[C@@H](C)[C@H](OC)CN(C)C3=O)cc1	-5.5	5.0
C[C@H](CO)N1C[C@H](C)[C@@H](CN(C)S(=O)(=O)c2ccc(F)cc2)OCCCC[C@H](C)Oc2ccc(NS(C)(=O)=O)cc2C1=O	2.2	5.9
COc1ccc2c3c(n(C)c2c1)[C@@H](CO)N(C(C)=O)CC31CCN(C(=O)c2cnccn2)CC1	12.1	4.0
O=C(C[C@H]1C[C@@H]2c3cc(NC(=O)CC4CC4)ccc3O[C@@H]2[C@H](CO)O1)NCCN1CCCCC1	0.8	-0.8
O=C(Nc1ccc(F)cc1)N1C[C@H]2[C@@H](c3ccccc31)[C@H](CO)N2C(=O)Cc1ccccn1	-2.4	5.6
CN1C(=O)c2cc(NC(=O)C3CC3)ccc2OC[C@H]2O[C@@H](CC(=O)NC3CCC3)CC[C@@H]21	-2.1	-10.1
N#C[C@@H]1[C@H](c2ccc(C3=CCCC3)cc2)[C@H](CO)N1C(=O)c1cccc(F)c1	7.5	4.3
CCC(=O)Nc1ccc2c(c1)OC[C@@H](C)N(C(=O)c1ccc(F)cc1)C[C@H](C)[C@@H](OC)CN(C)C2=O	2.5	-4.9
Cc1ccc(F)cc1S(=O)(=O)N1CCN(Cc2cccc(OCCO)c2)CC1	5.7	4.2
COc1ccc(C#Cc2ccc3c(c2)O[C@H](CN(C)C(=O)CN2CCOCC2)[C@@H](C)CN([C@@H](C)CO)S3(=O)=O)cc1	?	nt
CNC[C@@H]1Oc2ccc(NC(=O)Nc3ccc(OC)cc3)cc2C(=O)N([C@@H](C)CO)C[C@@H]1C	0.3	0.1
COCC(=O)N(C[C@H]1[C@H](c2ccccc2)[C@@H](CO)N1C(=O)NC(C)C)C(C)C	9.4	6.8
CN(C)C(=O)C[C@@H]1CC[C@@H]2[C@H](COc3ccc(NC(=O)C4CCC4)cc3C(=O)N2C)O1	-0.3	1.2
COCC(=O)N1CC2(CCN(C(=O)c3ccccn3)CC2)c2c(n(C)c3cc(OC)ccc23)[C@@H]1CO	-0.1	-9.8
C[C@@H]1CN([C@H](C)CO)C(=O)c2cc(NC(=O)c3ccccc3)ccc2O[C@@H](C)CCCCO[C@@H]1CN(C)Cc1ccc(Cl)c(Cl)c1	-31.9	-13.6
C[C@@H]1CN([C@@H](C)CO)S(=O)(=O)c2ccc(C#CC3(O)CCCC3)cc2O[C@H]1CN(C)C(=O)Cc1ccccc1	-28.2	-22.4
COC(=O)N(C)C[C@@H]1OCc2cnnn2CCCC(=O)N([C@@H](C)CO)C[C@H]1C	6.5	8.3
C[C@H](CO)N1C[C@H](C)[C@H](CN(C)Cc2ccc(C(=O)O)cc2)Oc2ccc(NC(=O)c3ccncc3)cc2CC1=O	6.0	6.6
Cc1noc(C)c1NC(=O)Nc1ccc2c(c1)C(=O)N([C@H](C)CO)C[C@@H](C)[C@H](CN(C)Cc1ccc(C(=O)Nc3ccccc3N)cc1)O2	-0.1	14.5
O=C([C@H]1[C@H](CO)[C@H]2Cn3c(cccc3=O)[C@H]2N1CC1CCCCC1)N1CCOCC1	1.0	3.6
O=C(CCN1CCCCC1)NCC[C@@H]1CC[C@@H](NS(=O)(=O)c2cccc(F)c2)[C@H](CO)O1	-8.0	-6.2
O=C(CN1CCOCC1)NCC[C@@H]1CC[C@H](NC(=O)c2ccccc2F)[C@H](CO)O1	3.3	5.0
COc1ccc(S(=O)(=O)Nc2ccc3c(c2)C(=O)N([C@H](C)CO)C[C@@H](C)[C@@H](CN(C)C(=O)NC(C)C)OCCCC[C@H](C)O3)cc1	16.6	15.0
C[C@H](CO)N1C[C@H](C)[C@H](CN(C)S(=O)(=O)c2ccc(F)cc2)Oc2ccc(NC(=O)C3CCCCC3)cc2CC1=O	2.9	-4.3
C[C@H](CO)N1C[C@H](C)[C@@H](CN(C)Cc2ccncc2)Oc2ccc(NS(=O)(=O)c3cn(C)cn3)cc2C1=O	16.7	4.0
COCC(=O)N1CC2(C1)[C@H](c1ccc(-c3ccc(F)cc3)cc1)[C@H](CO)N2C(=O)C1CC1	-11.0	-0.7
C/C=C/c1ccc2c(c1)O[C@@H](CN(C)C(=O)c1cnccn1)[C@H](C)CN([C@H](C)CO)S2(=O)=O	12.4	33.1
CCCNC(=O)C[C@H]1CC[C@H]2[C@H](COc3ccc(NC(=O)CCC)cc3C(=O)N2C)O1	9.9	3.8
C[C@H](CO)N1C[C@H](C)[C@H](CN(C)C(=O)c2ccncc2)Oc2cc(C#CC3CC3)ccc2S1(=O)=O	6.4	0.2
C[C@H](CO)N1C[C@H](C)[C@H](CN(C)C(=O)Nc2ccc(C(F)(F)F)cc2)Oc2c(NC(=O)Nc3ccccc3)cccc2C1=O	-21.0	-16.1

Only part of the results is shown. The share of hits here may be higher or lower than overall.
